WNV NS2B-NS3 inh: inhibitors of West Nile virus NS2B-NS3 protease | WNV NS2B-NS3 protease, fluorogenic substrate Ex360/Em465; hits give low values | z-score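 (tested at a level between 10 and 100 µM)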 | 65,000 compounds, 0.18% hits | P06935 | AID 577;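 active = z-score at -3 or under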;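 note: score is relative to mean and spread of the compound wells of a plate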
Target sequence (P06935 1371-1501 limits assumed): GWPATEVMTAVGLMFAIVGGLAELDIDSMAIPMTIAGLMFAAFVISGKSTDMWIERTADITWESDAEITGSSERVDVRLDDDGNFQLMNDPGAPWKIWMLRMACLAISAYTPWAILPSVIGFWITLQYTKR
Target sequence (P06935 1502-1679 limits assumed): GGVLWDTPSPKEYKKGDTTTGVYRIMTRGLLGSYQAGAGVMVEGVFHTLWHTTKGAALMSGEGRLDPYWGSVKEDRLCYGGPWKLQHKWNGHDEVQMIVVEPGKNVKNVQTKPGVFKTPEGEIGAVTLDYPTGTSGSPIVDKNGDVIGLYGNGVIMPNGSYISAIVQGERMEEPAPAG
MT1-MMP promoter: inhibitors of MT1-MMP promoter transcription, cell-based, luciferase reporter, luminescence (AID 618); 87,000 compounds, 0.62% hits; MT1-MMP promoter luciferase reporter cells, luminescence; calls from a first round at 10 µM; hits with a dose series show EC50 in µM;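 active = over half of the reporter light lost at 10 µM or EC50 under 50 µM; inactive = the rest and hits that failed the dose series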;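 note: actives suppress MT1-MMP promoter-driven transcription so potencies describe inhibitors; HT1080 fibrosarcoma cells; overnight exposure; toxic or luciferase-blocking compounds were not removed from the actives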
Hsc70: Hsc70 inhibitors, probe displacement, primary screen, biochemical, fluorescence polarization (AID 568) | Hsc70 fluorescence polarization, probe displacement; higher % means a stronger effect; strong numbers were not always called active | 83,000 tested, under 10 active | displacement, % at 20 µM; hits with a dose series show IC50 in µM;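 active = displacement above 50% without optical interference and an IC50 on retest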;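 note: ATPase domain with a fluorescein-tagged ATP probe; 0% = vehicle and 100% = excess ADP; read after one hour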
An asterisk follows results filed as active; i = inactive; x = no result given.

structure | WNV NS2B-NS3 inh | MT1-MMP promoter | Hsc70
CCCNC(=O)C1CNc2ccccc2O1 (stereo unspecified) | x | i | -3.1%
Cn1c(=O)c2c(nc(NCCc3ccccc3)n2CC(=O)NCCc2ccccc2)n(C)c1=O | 0.28 | i | 11.3%
CC1CCCN(CCCNC(=O)c2coc3nc4ccccc4nc23)C1 (stereo unspecified) | 0.46 | i | 6.3%
O=C(COc1ccc(S(=O)(=O)N2CCCC2)cc1Cl)NC1CCCC1 | x | i | 3.2%
Nc1ccc(N2CCOCC2)c(Cl)c1 | -0.81 | i | -7.5%
CN(Cc1ccccc1)S(=O)(=O)c1cccc2cccnc12 | x | i | 0.1%
COc1ccc2c(=O)c3c(=O)n(Cc4ccco4)c(-c4ccccc4)nc3oc2c1 | -1.13 | i | 2.0%
Cc1c(NC(=O)C(C)OC(=O)COc2cccc3c2OC(C)(C)C3)c(=O)n(-c2ccccc2)n1C (stereo unspecified) | 0.95 | i | -2.9%
Cc1onc(-c2ccccc2Cl)c1C(=O)NCC(=O)O | 0.54 | i | 1.9%
COc1c(O)cccc1-c1nnn(CCC(=O)OCC(=O)c2ccccc2)n1 | -0.00381 | i | -5.2%
O=C(CSc1nnc(-c2ccccc2F)n1C1CCCCC1)N1CCCC1 | 0.27 | i | 6.9%
O=C(CCCOc1ccccc1)Nc1cccc(C(=O)O)c1 | -1.3 | i | 1.0%

Retrieved by compound from above (3):
structure | WNV NS2B-NS3 inh | MT1-MMP promoter | Hsc70
Cn1c(=O)c2c(nc(NCCc3ccccc3)n2CC(=O)NCCc2ccccc2)n(C)c1=O | 0.28 | i | 11.3%
COc1c(O)cccc1-c1nnn(CCC(=O)OCC(=O)c2ccccc2)n1 | -0.00381 | i | -5.2%
O=C(CSc1nnc(-c2ccccc2F)n1C1CCCCC1)N1CCCC1 | 0.27 | i | 6.9%

The list continues:
structure | WNV NS2B-NS3 inh | MT1-MMP promoter | Hsc70
CCOC(=O)N1CCN(S(=O)(=O)c2ccc3c(c2)oc(=O)n3C)CC1 | 0.7 | i | -13.7%
CCc1ccccc1NC(=O)C(C#N)Cc1cccnc1 (stereo unspecified) | 0.82 | i | 6.1%
CCOC(=O)NC(Nc1ccc(C)cn1)(C(F)(F)F)C(F)(F)F | 1.53 | i | -7.3%
CC1(C)CCCC2=C1CC1C(=O)N(O)C(=O)C1C2 (stereo unspecified) | 0.56 | i | 0.8%
COC(=O)c1c(C(=O)OC)c2cc(C(=O)c3ccccc3)ccn2c1Cl | x | i | -1.2%
COc1ccccc1C(=O)Nc1ccc(C(=O)N2CCCC2)cc1 | x | i | -3.3%
CC(C)NC(=O)c1cc(-c2ccc(Br)cc2)on1 | 0.6 | i | -1.4%
Cc1ccc(Nc2cc(-n3nc(C)cc3C)ncn2)c(C)c1 | 0.81 | i | 2.2%
O=C(Nc1ccc(C(F)(F)F)cc1Cl)c1ccc(Cn2cc(Br)cn2)o1 | 0.56 | i | -7.0%
O=C(c1ccco1)N1CCN(C(=O)C2CCCN(S(=O)(=O)c3cccc4nsnc34)C2)CC1 (stereo unspecified) | x | i | -4.3%
Cc1cc(C)n(S(=O)(=O)c2cc(C(=O)O)c(Cl)cc2Cl)n1 | 1.14 | i | 3.3%
Cc1ccc(C(C)C)c(OCC(O)CN2CCOCC2)c1 (stereo unspecified) | -0.11 | i | 0.0%
COc1ccc(C2C(=O)N(C3CCCCC3)CC(=O)N2Cc2ccco2)cc1 (stereo unspecified) | -0.66 | i | 4.1%
C=CCNC(=O)NS(=O)(=O)c1ccc(C)cc1 | 0.82 | i | -1.7%
O=c1c2ccccc2nc2n1CC/C2=C/N1CCN(c2cccc(C(F)(F)F)c2)CC1 | -0.85 | i | -1.1%
CCOC(=O)N1CCN(C(=O)CSCC(=O)Nc2nc(-c3ccccc3)cs2)CC1 | -1.4 | i | -3.3%
CN(C)c1ccc(C(=O)OCC(=O)c2cccs2)cc1 | 2.3 | i | -1.3%
Cc1ccc(C)n1NC(=O)c1ccc(O)cc1 | x | i | 3.6%
N#Cc1ccccc1Cn1c(=O)n(-c2ccc(CC(=O)NCc3ccco3)cc2)c(=O)c2sccc21 | -0.15 | i | 2.4%
CSCC[C@H](NC(=O)CCn1nnc2ccccc2c1=O)C(=O)O | -0.62 | i | -8.1%
CCOC(=O)c1ccc(CSc2ncn[nH]2)o1 | -0.61 | i | -0.1%
CC(C)N(C(=O)c1ccccc1-c1ccccc1)C(C)C | x | i | -3.2%
O=C(NCc1cccnc1)C1CCN(C(=O)c2ccc(Cl)cc2Cl)CC1 | -0.88 | i | -2.0%
Cc1ccccc1N1CCN(C(=O)C2CCCCC2)CC1 | -1.12 | i | -1.2%
Cc1cc(=O)oc2c1ccc1oc(/C(=N/O)c3ccccc3)c(C)c12 | 0.47 | i | 5.6%
O=C(CNC(=O)c1ccco1)OCc1cccc(Cl)c1 | 1.16 | i | -1.6%
Cc1cccc(-c2noc(CCC(=O)NCC3CCCO3)n2)c1 (stereo unspecified) | x | i | -3.6%
NCCc1nnc(SCc2ccccc2F)o1 | -0.21 | i | 5.2%
Cc1ccccc1NC(=O)Cc1ccccc1 | x | i | 6.3%
CC(C)(C)NC(=O)CSc1ncnc2c1nnn2Cc1ccccc1Cl | -0.02 | i | -2.1%
C=CCc1ccc(OCCCCCN2CCOCC2)c(OC)c1 | 0.09 | i | 4.6%
O=C(CSc1nc2cc3ccccc3cc2[nH]1)Nc1ccc(F)cc1 | x | i | -2.3%
COC(=O)c1c(S(N)(=O)=O)c2ccccc2n1C | 0.11 | i | 2.0%
Cc1ccc(Nc2ncccc2C(=O)O)cc1C | 0.45 | i | 0.3%
CN(c1ccccc1C(=O)NCC1CCCO1)S(C)(=O)=O (stereo unspecified) | -1.25 | i | 4.2%
COc1ccc(NC(=O)Cn2nnc(-c3ccccc3NC(=O)c3ccco3)n2)cc1 | 0.31 | i | 0.7%

In another format: 3 of the compounds above.
structure: C=CCc1ccc(OCCCCCN2CCOCC2)c(OC)c1
  WNV NS2B-NS3 inh = 0.09
  MT1-MMP promoter = i
  Hsc70 = 4.6%

structure: O=C(CSc1nc2cc3ccccc3cc2[nH]1)Nc1ccc(F)cc1
  WNV NS2B-NS3 inh = x
  MT1-MMP promoter = i
  Hsc70 = -2.3%

structure: COC(=O)c1c(S(N)(=O)=O)c2ccccc2n1C
  WNV NS2B-NS3 inh = 0.11
  MT1-MMP promoter = i
  Hsc70 = 2.0%

(listing goes on)
structure | WNV NS2B-NS3 inh | MT1-MMP promoter | Hsc70
CCOC(=O)c1c(NC(=O)C2CCN(S(=O)(=O)c3cccs3)CC2)sc(C)c1C | 0.23 | i | -1.0%
O=C(NCN1C(=O)C2C3C=CC(C3)C2C1=O)Nc1ccccn1 (stereo unspecified) | -0.84 | i | 0.5%
CCCCSc1nc2c(c(=O)n1CC)SC(C)C2 (stereo unspecified) | -0.56 | i | 0.0%
O=C(NC1CC1)C1CCN(Cc2cnn(-c3ccccc3)c2-n2cccc2)CC1 | x | i | -0.7%
FC(F)(F)c1nc(N2CCN(c3ccccc3)CC2)nc2c1CCCCC2 | -1.06 | i | -1.0%
CC1CC(C)CN(C(=O)CSc2nnc(-c3ccc(Cl)s3)o2)C1 (stereo unspecified) | -1.16 | i | -1.8%
COc1cc(C(=O)Oc2ccccc2N)cc(OC)c1OC | -0.00972 | i | 3.9%
CCOC(=O)c1ccccc1NS(=O)(=O)c1ccccc1 | 1 | i | -0.3%
O=C1CCC(=O)N1c1nc2n(n1)C(c1ccccc1)C=C(c1ccc(Br)cc1)N2 (stereo unspecified) | 0.41 | i | 10.4%
CCOC(=O)CCSc1nc(C)c2cc(C)ccc2n1 | x | i | -5.0%
COCc1[nH]nc2c1C(c1c(F)cccc1Cl)C(C#N)=C(N)O2 (stereo unspecified) | 1.67 | i | -2.1%
Cn1c(=O)n(Cc2ccc(Cl)cc2)c(=O)c2c1nc1n2CCN1Cc1ccco1 | 1.31 | i | 1.5%
FC(F)(F)C1=CC(c2ccccc2)=NCCN1 | x | i | -3.3%
CCS(=O)(=O)c1ccc2oc(SCC(=O)N3c4ccccc4CC3C)nc2c1 (stereo unspecified) | x | i | 1.2%
O=c1c2c(C(F)(F)F)cc(C(F)(F)F)nc2[nH]n1-c1ccccc1 | x | i | -0.4%
O=C(Nn1cnnc1)C1CCCN1S(=O)(=O)c1ccc(F)cc1 (stereo unspecified) | x | i | -3.1%
CC(C)(C)NS(=O)(=O)c1cccc(S(=O)(=O)c2cccc(S(=O)(=O)NC(C)(C)C)c2)c1 | 0.2 | i | 1.2%
COC(=O)CNc1nc(-c2ccncc2)nc2ccccc12 | 0.26 | i | 6.6%
O=C1[C@@H]2C(c3ccccc3Cl)=NO[C@@H]2C(=O)N1Cc1ccccc1 | -0.36 | i | -2.1%
CC1CCCCN1Cc1nc2ccccc2c(=O)[nH]1 (stereo unspecified) | x | i | 1.3%
COc1ccc(CCNS(=O)(=O)c2ccc3c(c2)CC(C)N3C(C)=O)cc1OC (stereo unspecified) | -1.61 | i | -0.6%
Cc1ccc(NC(=O)COC(=O)CCc2c[nH]c(=O)[nH]2)cc1 | -0.34 | i | 25.1%
Cc1ccc(NC2=NC(c3ccc(C)cc3)n3c(nc(C)cc3=O)N2)cc1 (stereo unspecified) | 0.33 | i | 4.7%
Cc1cc(C(=O)Nc2sc3c(c2C#N)CCC(C(C)(C)C)C3)no1 (stereo unspecified) | 2.22 | i | -5.9%

The results go on:
Fields: WNV NS2B-NS3 inh | MT1-MMP promoter | Hsc70
> O=C(c1cc(-c2cccs2)on1)N1CCN(c2ccccc2)CC1
    -0.03 | i | -6.7%
> COC(=O)c1cn(-c2ccccc2)c(C)c1C(=O)OC
    x | i | 0.5%
> CCC(CC)C(=O)NCc1ccc2c(c1)cc(C)n2C
    0.53 | i | 4.2%
> CN(C)c1cccc(NC(=O)Cc2ccc(F)cc2)c1
    -0.38 | i | 3.3%
> CCn1c(Cc2ccccc2)nnc1SCC(=O)Nc1nccs1
    0.86 | i | 5.1%
> Nc1nc2c(c3c1c(=O)oc1ccccc13)CCCCC2
    -0.47 | i | 3.8%
> COc1c(Cl)cc(C(=O)Nc2ccc(Cl)cn2)cc1Cl
    x | i | 1.3%
> O=C(CCN1CCN(CC(=O)Nc2ccccc2F)CC1)Nc1ccccc1F
    1.63 | i | -3.9%
> Cc1cc(OC2CCCCC2)nc(-c2ccccc2O)n1
    -0.08 | i | -3.1%
> Cc1ccc(OCCCSc2ncccn2)cc1C
    x | i | 4.6%
> Cc1ccc(-n2ncc(-c3nnc(SCC(=O)NC4CCCC4)o3)c2N)cc1C
    -1.04 | i | 5.2%
> COc1ccc(C(c2nnnn2Cc2cccs2)N2CCN(c3ccccc3F)CC2)cc1 (stereo unspecified)
    -0.95 | i | -2.2%
> CCOc1ccc(/C=C2/SC(=S)N(n3c(C)ccc3C)C2=O)cc1
    x | i | -1.2%
> CCN(CC(=O)NC1CCCCC1)S(=O)(=O)c1ccc(Cl)cc1
    0.71 | i | -2.5%
> Cc1cc(C)n2nc(C(=O)NCc3ccccc3)cc2n1
    2.18 | i | -2.1%
> CCC(=O)c1ccc(N2CCOCC2)c(F)c1
    x | i | 1.7%
> COc1ccccc1OCC(=O)Nc1ccccn1
    -1.03 | i | -1.2%
> CC(=O)N1CN(CCCn2ccnc2)Cc2c1sc1c2CCCC1
    -0.33 | i | -5.0%
> CCOC(=O)CC1NC(=O)c2ccccc21 (stereo unspecified)
    x | i | -3.2%
> Cc1cc(N2CCN(C(=O)OC(C)(C)C)CC2)n2ncnc2n1
    -0.34 | i | -0.6%
> CC(=O)Nc1ccc(S(=O)(=O)NCCc2ccccc2)cc1
    1.66 | i | -3.5%
> O=C(Nc1ccc(Cl)cn1)C1CCCN1S(=O)(=O)c1ccc(Cl)cc1 (stereo unspecified)
    -1.08 | i | -7.8%
> O=C1NC(=O)c2c(NC(=O)C3CCCO3)cccc21 (stereo unspecified)
    0.31 | i | 3.9%
> Cc1cc(C)c2nc(-c3ccccn3)cc(C(=O)Nc3cc(C)on3)c2c1
    0.76 | i | 0.7%
> Oc1ccc(CN2CCN(c3ccccc3)CC2)c2cccnc12
    x | i | 1.3%
> O=C(Cc1cccs1)Nc1nc2ccccc2s1
    0.13 | i | -4.4%
> COC(=O)C1=C(C)OC(N)=C(C#N)C1c1c(C)nn(-c2ccccc2)c1Cl (stereo unspecified)
    1.95 | i | 0.3%
> O=C(CSc1ccc2c(c1)OCCO2)Nc1ccc(Br)cc1
    x | i | 2.2%
> O=C(Nc1ccc(Cl)cn1)C1CCCN1S(=O)(=O)c1ccccc1 (stereo unspecified)
    -0.02 | i | 3.7%
> CCCCn1c(=O)[nH]c(=O)c2c1nc(-c1ccc(C#N)cc1)n2C1CCCC1
    0.03 | i | -7.6%
> CCSc1nc(-c2ccc(OC)cc2)cc(-c2ccccc2)c1C#N
    x | i | 7.3%
> CCOC(=O)C(C)Oc1ccc(C2NC(=O)NC(C)=C2C(=O)Nc2ccccc2C)cc1 (stereo unspecified)
    0.28 | i | -0.5%
> CCC(COC(=O)Nc1cccc(C)c1)NC(=O)OCC(C)C (stereo unspecified)
    0.77 | i | -2.6%
> Cc1ccc(C(=O)Nc2cnc3sc(C)nn3c2=O)cc1
    0.6 | i | -5.0%
> Cc1ccc(-n2ncc3c(=O)[nH]c(SCC(=O)N4CCCCC4)nc32)cc1
    -0.02 | i | -2.7%
> CCOCCn1c(CN2CCN(c3ccc(OC)cc3)CC2)nc2c1c(=O)n(C)c(=O)n2C
    -1.94 | i | 5.0%
> COc1cc2c(cc1OC)C(c1cc(OC)c(OC)c(OC)c1)NCC2 (stereo unspecified)
    -0.58 | i | 2.9%

Source: PubChem
